# Bioassay records: PubChem, ICCB-Longwood Screening Facility, Harvard Medical School
# UCH37 inh: human UCH37 deubiquitinating enzyme inhibition; Q9Y5K5; purified proteasome/UCH37, Ub-AMC cleavage fluorescence; inhibition, % (concentration not given with the values); 330,000 compounds, 0.33% hits;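 active = mean of two replicates above 20%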;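 also: 0% = compound-free wells with enzyme and 100% = wells lacking proteasome; stock transfer was 100 nL into about 20 µL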
# Target sequence (Q9Y5K5 whole entry, looked up): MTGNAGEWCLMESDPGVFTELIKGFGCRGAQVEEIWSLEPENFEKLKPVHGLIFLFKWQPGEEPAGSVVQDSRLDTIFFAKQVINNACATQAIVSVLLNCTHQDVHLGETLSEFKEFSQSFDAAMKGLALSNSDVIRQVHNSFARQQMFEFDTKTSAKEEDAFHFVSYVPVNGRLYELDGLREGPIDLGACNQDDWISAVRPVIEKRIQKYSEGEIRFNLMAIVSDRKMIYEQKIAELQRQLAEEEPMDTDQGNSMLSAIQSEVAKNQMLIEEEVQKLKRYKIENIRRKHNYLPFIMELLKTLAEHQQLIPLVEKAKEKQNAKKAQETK
#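 system = Proteasome-associated human UCH37 deubiquitinase | amount = 0.15 nM proteasome as dispensed | medium = pH 7.4 Tris-HCl (50 mM) with ovalbumin, ATP-MgCl2, DTT | incubation = 30 min preincubation with enzyme, 25 min cleavage at room temperature | detection = AMC fluorescence 355/460 nm | read-out basis = percent inhibition | controls = no-proteasome and no-compound wells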
# * marks the source's active call; other numbers are inactive results. The list is partial; rates above refer to the full screens.
SMILES,UCH37 inh
Cc1nc2ccccc2cc1C(=O)NN=Cc1cccs1,8.1
CCOc1ccc(C=NNC(=O)C(O)c2ccccc2)c(O)c1 (stereo not given),-11
Cc1ccsc1C=NNC(=O)c1ccc2c(c1)OCO2,9.5
CC(=NNC(=O)c1ccc(C)cc1C)c1ccc(-n2ccnc2)cc1,0.5
CNC(=S)NN=Cc1cn(CCOc2ccccc2OC)c2ccccc12,2.6
CC(=NNC(=O)CCn1nnc2ccccc21)c1cccs1,4.2
O=C1NCCCC1=NNc1cc(F)ccc1F,6.9
CC(CC(=O)Nc1ccc(Cl)cc1C(F)(F)F)=NNC(=O)c1cccs1,3.7
CC(=NNC(=O)c1cccc(NN=C(C)c2ccco2)c1)c1ccco1,1.7
COc1ccc(OC)c(C(O)=CC(=O)C(=O)Nc2cc(C)ccc2OC)c1,4.6
Oc1ccc(C=NN=C(c2ccccc2)c2ccccc2)c(O)c1O,11
Cc1cccc(COc2ccccc2C=NNc2ccc([N+](=O)[O-])cc2)c1,-3.8
Cc1nn(-c2ccccc2)c(N=Cc2ccccc2O)c1-c1ccccc1,-0.8
COCc1cc(C)nc(OCC(=O)NN=Cc2cccc(OC)c2)c1C#N,-26
C(=NN1CCN(C2c3ccccc3-c3ccccc32)CC1)c1cccs1,5.8
COC(=O)NN=Cc1sc(N2CCCCC2)nc1-c1cccs1,-10
CCN(CC)c1ccc(C=NN(c2ccccc2)c2ccccc2)c(O)c1,2.9
CCOc1cccc(-c2cc(C(=O)NN=Cc3ccc(OC)c(CN4CCOCC4)c3)c3ccccc3n2)c1,-3.4
COc1cc(C=NNC(=O)c2nnn(-c3nonc3N)c2C(C)C)ccc1O,3.6
NC(=O)c1cc2cc(Br)ccc2oc1=NNC(=O)c1cccc(F)c1,1.9
Cn1nc(-c2ccccc2)c(C=NO)c1Cl,0.1
Cc1ccccc1C(=O)NN=C1SCC(=O)N1Cc1ccco1,2.3
CCOc1ccc(C=NNC(=O)C2CCCC2)c(OCC)c1,0.6
CSc1ccc(C=NNC(=O)c2cccs2)cc1,-11
O=C(NN=Cc1cnc(N2CCOCC2)s1)c1ccccc1,6.2
COc1cc(C=NN2C(=O)CSC2=S)cc(Br)c1O,15
Cc1ccc(S(=O)(=O)N2CCN(CC(=O)NN=C/C(Cl)=C/c3ccccc3)CC2)cc1,3.4
Cc1ccc(NC(=O)CSc2nnc(N=CN(C)C)s2)cc1,3.1
COc1ccc(C=Nn2c(=S)n(C)c3ccccc32)cc1OC,3.7
CC(=O)C(C[N+]1(C)CCCCC1)=NO,3.3
c1ccc(NN=C2CCCc3ccccc32)nc1,4.6
CC(=O)Nc1ccccc1NC(=O)CC(C)=NNC(=O)c1ccncc1,0.0
CC(=O)NCc1ccc(S(=O)(=O)NN=Cc2ccc(Br)cc2)cc1,1.6
Cc1ccc(-c2cc(C(=O)NN=Cc3c(C)nn(-c4ccccc4)c3C)n[nH]2)s1,0.7
CC(=NNC(=O)C1CC1)c1cccc(NC(=O)c2cccc(Cl)c2)c1,0.4
Cc1c(-c2ccc(C=NNC(=O)C(=O)Nc3ccccc3F)o2)cccc1[N+](=O)[O-],3.9
CCOC(=O)C(=NNc1cc(Cl)ccc1Cl)N1CCN(CC)CC1,7.4
COc1cccc(C=NNC(=O)C(=O)NCc2cccnc2)c1,7.0
CC(=NNC(=O)c1ccccc1C)c1cccnc1,4.5
CC(=O)c1ccc(NN=C(C(N)=O)C2=NC(C)(C)Cc3ccccc32)cc1,5.4
COc1ccc(NC(=O)ON=Cc2ccccc2Cl)cc1,3.1
O=C(NN=Cc1ccc([N+](=O)[O-])o1)C1CC1,13
CC(CCc1ccccc1)=NNC(=O)c1ccc(CN2CCOCC2)cc1,2.4
Cc1ccc(-c2cc(C(=O)NN=Cc3ccc(F)cc3)n[nH]2)o1,3.1
COc1ccc(C=NNC(=O)c2cccnc2)cc1Cn1nc([N+](=O)[O-])c(Br)c1C,4.3
Cc1nc2ccc(C(=O)NN=Cc3ccccc3O)cc2[nH]1,-35
O=C(CNC(=O)c1ccc2c(c1)OCO2)NN=Cc1cccc([N+](=O)[O-])c1,3.0
CC(C)C(=O)ON=C1CCS(=O)(=O)c2sccc21,2.3
Cc1ccc(C=NNc2ccccn2)s1,2.2
Cc1nc(NN=Cc2ccc3c(c2)OCO3)sc1C,-6.3
# Continuation.
SMILES,UCH37 inh
COc1ccccc1/C=C/C=Nn1c(-c2ccco2)n[nH]c1=S,3.7
CCCN(CCC)Cc1c(C(=O)NN=Cc2ccoc2)nnn1-c1nonc1N,1.9
CC(=NNC(=O)C1COc2ccccc2O1)c1ccc(Cl)s1 (stereo not given),2.4
O=C(NCCCN1CCOCC1)C(=O)NN=Cc1c(Cl)cccc1Cl,3.7
CC(=NNC(=O)c1ccccc1F)c1ccc(C#N)cc1,1.2
Cc1ccc(S(=O)(=O)NN=Cc2ccc(C(=O)O)cc2)cc1,2.2
Cc1cccc(-n2c(C)cc(C=NO)c2C)c1,2.0
ON=C1CCc2cc(Cl)ccc21,1.0
Cc1c(C(=O)O)cccc1-n1c(C)cc(C=NNC(=O)c2cc3ccccc3o2)c1C,3.0
CC(=NNC(=O)C(=O)Nc1cccc(C(F)(F)F)c1)c1ccc(Cl)s1,-2.7
O=C(Cn1nc2ccccc2n1)NN=Cc1cc(Cl)cc([N+](=O)[O-])c1O,6.0
CCOC(=O)C(=NNc1cc(Cl)ccc1Cl)N1CCOCC1,5.5
O=C(NN=Cc1cccnc1)c1ccccc1Cl,0.9
Cc1ccc(S(=O)(=O)N(CC(=O)NN=Cc2cccc3c2OCCO3)c2ccccc2F)cc1,-0.9
CCOC(=O)C(C(C)=NNC(=O)c1ccccc1[N+](=O)[O-])C(C)C (stereo not given),4.1
CCn1ncc(C=NNC(=O)Cc2ccc([N+](=O)[O-])cc2)c1C,3.9
CSc1ccccc1NC(=S)NN=Cc1cccn1Cc1cccc(C)c1,5.0
CCC(=NNC(=O)C1CCCC1)c1ccc(Br)cc1,3.0
CC(Cn1cnc([N+](=O)[O-])n1)=NNC(=O)c1ccccc1O,2.9
Cc1nn(C)cc1C=NNC(=O)C(C)(C)Oc1ccc(Cl)cc1,2.8
COc1ccc(C=NNC(=O)c2ccc(C)cc2)cc1CN1CCN(c2ccc(F)cc2)CC1,3.1
CN(C)c1ccnc(-n2cccc2C=NO)c1C#N,3.8
Cc1cc(=O)[nH]c(N=C(N)Nc2cccc3ccccc23)n1,3.7
COc1ccc2[nH]c(C(=O)NN=Cc3ccc(O)cc3O)cc2c1,-57
COc1ccc2nc(C)cc(NN=Cc3ccc(F)cc3)c2c1,-4.7
O=[N+]([O-])c1cc(Cl)cc(C=NNC(=S)Nc2cc(S(=O)(=O)N3CCOCC3)ccc2Cl)c1O,23*
O=C(NCC1CCCO1)C(=O)NN=Cc1ccc(OCc2ccccc2Cl)cc1 (stereo not given),1.9
NS(=O)(=O)c1ccc(NN=Cc2ccncc2)cc1,17
Cc1ccnc(N/C=C(/NC(=O)c2ccccc2)C(=O)NN=Cc2ccc(F)cc2)n1,8.4
CCOc1cc(C=NNc2ncc(F)c(N3CCOCC3)n2)ccc1Oc1nc(Cl)ncc1F,3.7

# Eight entries already listed, sorted by count of non-hydrogen atoms, smallest number first:
SMILES,UCH37 inh
CCC(=NNC(=O)C1CCCC1)c1ccc(Br)cc1,3.0
CC(Cn1cnc([N+](=O)[O-])n1)=NNC(=O)c1ccccc1O,2.9
Cc1nn(C)cc1C=NNC(=O)C(C)(C)Oc1ccc(Cl)cc1,2.8
COc1ccc2[nH]c(C(=O)NN=Cc3ccc(O)cc3O)cc2c1,-57
O=C(NCC1CCCO1)C(=O)NN=Cc1ccc(OCc2ccccc2Cl)cc1 (stereo not given),1.9
Cc1ccnc(N/C=C(/NC(=O)c2ccccc2)C(=O)NN=Cc2ccc(F)cc2)n1,8.4
O=[N+]([O-])c1cc(Cl)cc(C=NNC(=S)Nc2cc(S(=O)(=O)N3CCOCC3)ccc2Cl)c1O,23*
COc1ccc(C=NNC(=O)c2ccc(C)cc2)cc1CN1CCN(c2ccc(F)cc2)CC1,3.1

# Four of the entries above in order of the UCH37 inh value, low to high:
compound | UCH37 inh
COc1ccc(C=NNC(=O)c2ccc(C)cc2)cc1CN1CCN(c2ccc(F)cc2)CC1 | 3.1
CN(C)c1ccnc(-n2cccc2C=NO)c1C#N | 3.8
NS(=O)(=O)c1ccc(NN=Cc2ccncc2)cc1 | 17
O=[N+]([O-])c1cc(Cl)cc(C=NNC(=S)Nc2cc(S(=O)(=O)N3CCOCC3)ccc2Cl)c1O | 23*

# The results go on:
SMILES,UCH37 inh
ON=C1CCCc2oc3c(c21)CCCC3,4.1
O=C(CNC(=O)c1cccc(Cl)c1)NN=C/C=C/c1ccccc1,3.8
O=C(NN=Cc1cccn1-c1ccccc1)c1ccncc1,15
COC(=O)NN=Cc1ccc(Oc2ccccc2)cc1,2.3
Cc1ccsc1C=Nn1cnc2sc(C)c(C)c2c1=O,4.7
O=C(NN=Cc1cc([N+](=O)[O-])ccc1O)c1cccc2cc[nH]c12,1.7
CN(C)c1ccc(C=NN2CCN(c3ccccn3)CC2)cc1,9.5
Cc1cc(C)c[n+](-c2[nH]c(=O)sc2C=NNC([S-])=Nc2ccccc2)c1,23*
O=C(NN=Cc1ccccc1OCC(=O)N1CCCC1)C(=O)Nc1ccccc1F,4.3
CC(C)(C)c1cc(C=NNC(=O)Cc2nc3ccccc3[nH]2)cc(C(C)(C)C)c1O,-2.9
Cc1ccc(NC(=O)CC2S/C(=N/N=C3CCCc4ccccc43)NC2=O)cc1 (stereo not given),4.8
CN(C)C=Nc1cc(=O)[nH]c(=O)n1C,-1.6
COc1cc(C=NNC(=O)Cn2cnc3ccccc3c2=O)ccc1O,4.7
CCOc1ccc(C(=O)NN=Cc2cccc3cccnc23)cc1,4.5
CC(CC(=O)Nc1ccccc1Cl)=NNC(=O)C(=O)NCCO,2.0
ON=C1CCCCc2ccccc21,1.5
COc1ccc(C=NNC(=O)Cn2cc(C(F)(F)F)ccc2=O)cc1,1.4
COc1ccc(C=NS(=O)(=O)c2ccccc2)cc1OC,3.5
CCC(C)C(C)=NNC(=O)CSc1nc2ccccc2[nH]1 (stereo not given),4.4
Cn1c(C(C#N)=NO)nc2ccccc21,-0.6
COc1ccc(C=NNc2ncnc(Cl)c2N)cc1OC,14
CC(=O)Nc1cccc(C(C)=NNC(=O)c2cccs2)c1,2.7
COc1ccc(C=c2sc3nc(-c4ccccc4)c(-c4ccccc4)n3c2=O)cc1OC,6.8
O=C(CNC(=O)C1COc2ccccc2O1)NN=Cc1ccc(Br)cc1 (stereo not given),1.0
O=C1CS/C(=N/N=Cc2c[nH]c3ccccc23)N1,2.3
O=C(NN=Cc1cccc(O)c1)c1ccc(NC(=O)c2cccc([N+](=O)[O-])c2)cc1,0.9
Cn1cc([N+](=O)[O-])c(C(=O)NN=Cc2ccncc2)n1,1.0
COc1cc(C=Nn2nnnc2N)cc(Cl)c1OC,3.7
O=C(COc1ccccc1[N+](=O)[O-])NN=C/C=C/c1ccco1,4.2
CCCCCCOc1ccc(C=NNC(=O)C2CC2)cc1,-1.4
O=C(CNC(=O)C1COc2ccccc2O1)NN=Cc1cccc(O)c1 (stereo not given),3.4
Cc1cc(C)n(-c2nnc(C)n2N=Cc2ccccc2OCc2ccccc2Cl)n1,1.2
COc1ccc(-c2n[nH]c(=S)n2N=C/C=C/c2ccccc2OC)cc1,4.1
O=C(COc1ccccc1)NCC(=O)NN=Cc1ccc(Cl)cc1,0.5
CCCOc1ccc2ccccc2c1C=Nn1c(C)nnc1-n1nc(C)cc1C,-2.0
O=C(CN1CCCc2ccccc21)NN=Cc1c(O)ccc2ccccc12,-1.4
CN(C)C=NC(=S)Nc1ccccc1,5.1
COc1ccc(C(=O)NN=C(C)CC(=O)Nc2ccccn2)cc1OC,2.1
Cc1ccccc1-c1cc(C(=O)NN=Cc2cccnc2)c2ccccc2n1,6.2
CSc1sccc1C=NO,3.1
O=C(Cc1ccc(Br)c2ccccc12)NN=Cc1ccccn1,2.2
Cc1cc(C)n(CC(=O)NN=Cc2cc(Br)cc([N+](=O)[O-])c2O)n1,11
O=C1CCCCCCCCCCC(=NO)CCCO1,4.8
O=C(O)CCn1cc(C=NO)c(-c2cccc([N+](=O)[O-])c2)n1,5.1
COc1cccc(NC(=O)C(=O)NN=Cc2cc(C)n(-c3ccc(Cl)c(Cl)c3)c2C)c1,-364
COc1cc(C=NNc2nncc3ccccc23)cc(OC)c1OC,15
Fc1cccc(C=NNc2ccc3ccccc3n2)c1,2.1
N/C(=N\N=Cc1ccco1)SC1CC(=O)N(c2ccccc2)C1=O (stereo not given),6.7
CC(=NNC(=O)c1ccc(Cl)s1)c1ccc(NC(=O)COc2ccc(Cl)cc2)cc1,-11
Cc1occc1C(=O)NN=Cc1cnn(C)c1C,4.1
# (more compounds)
SMILES,UCH37 inh
COc1cc(C(C)=NNC(=O)CSc2nncn2C)ccc1OCc1ccccc1Cl,2.3
Cc1cc(C(=O)O)ccc1-c1ccc(C=Nn2cnnc2)o1,-35
CC(Cc1ccccc1)=NNC(=O)CNC(=O)c1ccccc1,1.2
Cc1ccnn1CC(=O)NN=Cc1ccco1,1.2
CC(C)(C)C=NNC(=O)C1CC1,5.4
COC(=O)c1sccc1-c1ccc(C=NOC(=O)c2ccccc2)o1,-55
CCN1C(=O)C(C)SC1=NS(=O)(=O)c1ccc(F)cc1 (stereo not given),0.3
Cc1nn(-c2ccccc2)c(Cl)c1C=NNc1nncc(=O)[nH]1,3.7
CC(CC(=O)NC1CCCC1)=NNC(=O)Cc1cccs1,2.5
O=C(CNC(=O)c1ccncc1)NN=Cc1cccc([N+](=O)[O-])c1,1.2
